Source: PubChem BioAssay
Ba CapD inh = inhibitors of Bacillus anthracis CapD enzyme | purified CapD enzyme, fluorescence intensity read-out; stronger effect = lower value; some hits fall short of the stated cut | 140,000 tested, 0.23% active | AID 492967 | z-score (no concentration beside the values);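 active = z-score under -4 in either of two replicates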;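 note: stock transfer was 100 nL into about 40 µL; score is relative to mean and spread of the plate; one replicate is shown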
AID504770 = growth inhibitors of E. coli YBA685 in a screen for V. cholerae RctB (chromosome II replication) inhibitors. E. coli YBA685 rctB-dependent plasmid, OD600 growth, 3 h; stronger effect = lower value. z-score (no concentration beside the values). 130,000 tested, 0.27% active. AID 504770;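 active = z-score under -2 on both plates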;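 note: wells of about 30 µL received 100 nL stock; score is relative to mean and SD of the test wells; the first replicate is given; strong numbers were not always called active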
Starred values were filed as active, the others as inactive.

Screening CC(C)OC(=O)C1C2C=CC3(CN(c4cccc(Cl)c4)C(=O)C13)O2 (stereo unspecified) returned Ba CapD inh 0.15 and AID504770 -0.1.
`O=c1/c(=C\c2ccc(Br)cc2)sc2nc(-c3ccccc3)c(-c3ccccc3)n12` gave Ba CapD inh 0.11.
Screening CCC(=O)N(CCC(c1ccccc1)C1CCOC(C)(C)C1)Cc1ccc(OC)cc1 (stereo unspecified) returned Ba CapD inh 0.12 and AID504770 -0.55.
Screening CC(Nc1nc2nonc2nc1NC(C)c1ccccc1)c1ccccc1 (stereo unspecified) returned Ba CapD inh -0.2 and AID504770 0.5.
Screening CN(CCO)c1cc(Br)c2noc3c2c1C(=O)c1ccccc1-3 returned Ba CapD inh -1.8 and AID504770 2.2.
Screening COC(=O)CSc1c(-c2ccccc2)c2cc(Cl)ccc2[nH]c1=O returned Ba CapD inh -0.51 and AID504770 -0.75.
For CC(C)NC(=O)COc1ncnc2ccccc12 the results were AID504770 -0.45.
For Cc1ccc(NC(=O)CC(NC2CCCCC2)C(=O)O)cc1Cl (stereo unspecified) the results were AID504770 -0.3.
`O=C(/C=C/c1cccs1)Nc1cccc(Cl)c1Cl` gave Ba CapD inh -2 and AID504770 -1.1.
`O=C(/C=C/c1ccccc1)Nc1ccc(S(=O)(=O)N2CCCCC2c2cccnc2)cc1` (stereo unspecified) gave Ba CapD inh -0.27.
Screening O=C(COc1cccc(-n2cnnn2)c1)N1CCc2ccccc2C1 returned AID504770 0.95.
COC(=O)c1cc(C(=O)OC)cc(N2C(=O)CSC2c2c(F)cccc2Cl)c1 (stereo unspecified) was read as Ba CapD inh -0.61.
Screening CC(=O)Nc1ccc(S(=O)(=O)N(C)CC(=O)OCc2cc(=O)oc3cc(O)ccc23)cc1 returned AID504770 0.4.
`CCCCN(C(=O)c1cc2c(s1)-c1ccccc1OC2)C1CCN(C(C)=O)CC1` gave Ba CapD inh 102 and AID504770 -0.6.
CCOC(=O)C1CCN(C(=O)COC(=O)Cc2ccsc2)CC1 was read as AID504770 0.15.
Screening C=CCSc1nnc2n(-c3ccccc3)c(=O)c3c4c(sc3n12)CCC4 returned Ba CapD inh -0.14 and AID504770 -0.1.
For CSC(=NS(=O)(=O)c1cc(Cl)sc1Cl)SC the results were Ba CapD inh -3.3 and AID504770 0.75.
Cc1ccc(CNC(=O)c2coc(=O)c3ccccc23)o1 was read as Ba CapD inh -1 and AID504770 0.25.
`COc1cccc(CNC(=O)CCC2=NS(=O)(=O)c3ccc(C)cc3N2)c1` gave Ba CapD inh -0.055 and AID504770 0.35.
`Cc1[nH]c2ccccc2c1CN1CCN(c2ccccn2)CC1` gave Ba CapD inh 0.55 and AID504770 0.15.
Screening Cc1c(C#N)c(N)n(C2CCCCC2)c1C returned AID504770 -0.65.
`c1ccc2c(c1)OC1c3ccccc3OC3c4ccccc4OC2N31` (stereo unspecified) gave Ba CapD inh 0.31 and AID504770 -0.85.
For c1ccc(CSc2nnc3sc4ccccc4n23)cc1 the results were Ba CapD inh 0.22 and AID504770 0.25.
Screening O=C(NCc1ccccc1)c1cccc(N2CCCC2=O)c1 returned Ba CapD inh -0.27 and AID504770 -0.8.
CCOC(=O)c1cc(CC)sc1Nc1nc2ccccc2nc1N1CCOCC1 was read as AID504770 0.55.
For COc1cc(/C=N/OCC(=O)NC2CCCCC2)ccc1OC(F)F the results were AID504770 0.
Screening CCc1cc2c(=O)c(-n3cnc4ccccc43)coc2cc1O returned Ba CapD inh 0.79 and AID504770 -0.2.
Screening O=S(=O)(c1ccc(Cl)cc1)N1CCn2c1nc1ccccc12 returned Ba CapD inh 0.15 and AID504770 0.05.
Screening O=C(OCCCCN1C(=O)c2ccccc2C1=O)C1=NN(c2ccccc2)C(=O)CC1 returned AID504770 0.2.
For NNc1nc(NN)c2c3c(sc2n1)CCCCC3 the results were AID504770 -0.4.
For CC(=O)Nc1sc(C)c(C)c1C(=O)OCn1nnc2ccccc2c1=O the results were AID504770 0.45.
For Cc1c(Br)c(C(F)(F)F)nn1CC(=O)NCc1ccc(F)cc1C(F)(F)F the results were Ba CapD inh -0.64.
`Cc1nc(-c2ccc(C(F)(F)F)cc2)sc1C(=O)NNC(=O)OCc1ccc(C#Cc2ccccc2)s1` gave Ba CapD inh 2.3.
For Cc1csc2sc(COC(=O)Nc3ccccc3)c(C)c12 the results were Ba CapD inh 0.94 and AID504770 0.45.
Screening CCn1c(CNC(=O)c2ccc(OC)cc2)nnc1SC(C)C returned Ba CapD inh -0.27 and AID504770 -0.5.
Screening O=C1c2ccccc2-c2ccc3ccccc3c21 returned Ba CapD inh -0.15.
COc1ccc2c(c1)CCc1c-2nc2ccccc2c1N1CCOCC1 was read as Ba CapD inh 1.5 and AID504770 0.35.
CN1c2ccsc2C(O)=C(C(=O)Nc2ccc(Cl)cc2)S1(=O)=O was read as Ba CapD inh -0.54.
For O=C(Nc1ccccc1)c1cc2sccc2n1Cc1ccccc1 the results were AID504770 1.1.
`Cc1cc(S(N)(=O)=O)c2ncccc2c1` gave Ba CapD inh 0.52 and AID504770 -1.4.
For FC(F)(F)c1ccccc1NNC(=S)NCC1CCCO1 (stereo unspecified) the results were AID504770 0.6.
For Cc1cc(NC(=O)CSc2nc3ccccc3[nH]2)n(-c2ccccc2)n1 the results were Ba CapD inh -0.78 and AID504770 -1.2.
`N#Cc1cccc(NC(=O)Nc2cccn(Cc3ccccc3)c2=O)c1` gave AID504770 0.
`CC(=O)N(C(C)=O)C1=C(C#N)C2(CCCC2)Cc2ccccc21` gave Ba CapD inh 5.7.
Screening COCc1cc(C)nc(OCC(=O)c2ccccc2)c1C#N returned Ba CapD inh 2.9.
CCCn1cc(SCC(=O)NC2CCCCC2)c2ccccc21 was read as Ba CapD inh -0.32 and AID504770 0.05.
For CC(C)=CC1C(C(=O)NCCOc2ccccc2)C1(C)C (stereo unspecified) the results were Ba CapD inh -0.28 and AID504770 2.4.
CN(C)c1ccc(/C=C(\C#N)C(N)=O)cc1 was read as AID504770 -0.9.
N#Cc1c(N)nc2c(c1-c1ccncc1)CCCC2 was read as Ba CapD inh 1 and AID504770 -0.55.
`COc1ccc(C2C(N3C(=O)c4c(Cl)c(Cl)c(Cl)c(Cl)c4C3=O)C(=O)N2c2cc(Cl)cc(Cl)c2)cc1Br` (stereo unspecified) gave Ba CapD inh -0.27.
For CCOc1cc(C(=O)O)cc(Cl)c1O the results were AID504770 -1.5.
Cc1noc(C)c1CC(=O)O was read as AID504770 0.35.
`c1ccc(CN2CCN(c3cccc4[nH]ccc34)CC2)cc1` gave Ba CapD inh 1.3 and AID504770 1.2.
`CN(C)c1ccc(/C=C2\SC(=O)N(CCN=C3NS(=O)(=O)c4ccccc43)C2=O)cc1` gave Ba CapD inh 0.79.
CCCC1c2cccn2CCN1C(=O)Nc1ccccc1 (stereo unspecified) was read as Ba CapD inh -0.39 and AID504770 -1.1.
COc1ccccc1C(=O)/C=C1\NC(=O)CS1 was read as AID504770 -1.
For N#CCCSc1nc2ccccc2s1 the results were Ba CapD inh -1.3.
Screening N#C/C(NCc1cccs1)=C(\C#N)NCc1c(F)cccc1Cl returned Ba CapD inh -1.2.
CCOC(=O)CC1C(=O)NCCN1C(=O)Nc1ccccc1 (stereo unspecified) was read as Ba CapD inh -0.29 and AID504770 1.5.
For O=C1CCC2=C(CCCC2=O)N1 the results were AID504770 -0.15.
CN(CC1COc2ccccc2O1)S(=O)(=O)c1ccc2c(c1)CCCC(=O)N2 (stereo unspecified) was read as Ba CapD inh 0.2 and AID504770 -0.9.
For Cc1ccc2c(CC(=O)NC3=NCCS3)coc2c1 the results were AID504770 -0.1.
`COCCOC(=O)c1c(NC(=O)CNCc2ccco2)sc(C(N)=O)c1C` gave AID504770 1.8.
Screening C=CCNc1nc(OC)nc(OC)n1 returned Ba CapD inh 0.38 and AID504770 0.15.
`CC(=O)NN1C(=O)/C(=C\c2ccc(I)o2)SC1=S` gave Ba CapD inh -1.8 and AID504770 -0.25.
`O=C(Oc1ccc(Cl)c2cccnc12)c1cccs1` gave Ba CapD inh -0.47 and AID504770 0.15.
`Oc1ccc(C(=S)N2CCOCC2)cc1` gave Ba CapD inh -0.44 and AID504770 1.5.
For COc1nc(C(F)(F)F)cc(C)c1C#N the results were Ba CapD inh 1.
O=C(NC1CCCCC1)c1ccc(Cl)cc1 was read as Ba CapD inh -0.14 and AID504770 -0.7.
`COc1ccc(C2=NN(S(=O)(=O)c3ccc(C)cc3)C(c3cccc(OC)c3OC)C2)cc1OC` (stereo unspecified) gave Ba CapD inh -0.12.
Screening Nc1nc(SCC(=O)NCC2CCCO2)n[nH]1 (stereo unspecified) returned AID504770 -0.25.
Screening CC(=O)Nc1cccc(OCC(=O)N2N=C(c3ccc(Cl)cc3)CC2c2ccco2)c1 (stereo unspecified) returned AID504770 -0.75.
`Cc1oc(-c2ccc(Cl)cc2)nc1CN1CCC(C(=O)NC2CCCC2)CC1` gave Ba CapD inh 0.83 and AID504770 -0.15.
COc1ccc(-c2nnc(SC(C)c3nnc(-c4cccs4)o3)o2)cc1 (stereo unspecified) was read as AID504770 -0.45.
For CCc1nc2ccccc2n1CCCOc1ccc(Cl)cc1 the results were Ba CapD inh 0.42 and AID504770 -0.45.
Cc1cccc(CCNC(=O)c2cc(=O)[nH]c3ccc(Br)cc23)c1 was read as Ba CapD inh -0.68 and AID504770 0.7.
For CCOC(=O)c1ccc(N=C2S/C(=C\c3cc4c(cc3OC)OCO4)C(=O)N2C)cc1 the results were Ba CapD inh 0.24 and AID504770 -0.5.
For CC(=O)N1C(=S)NC(=O)/C1=C\c1c(Cl)cccc1Cl the results were Ba CapD inh -0.085 and AID504770 0.3.
For CN(CC(=O)N1CCCCC1)S(=O)(=O)c1ccc2c(c1)CCCC(=O)N2 the results were Ba CapD inh 0.66 and AID504770 0.15.
`Cc1ccc(C(=O)CSC(=S)SC(C)(C)C)cc1` gave Ba CapD inh -0.29.
Screening O=C(O)CCCn1cc(NC(=O)c2cccs2)cn1 returned Ba CapD inh -0.63 and AID504770 -0.9.
N#CC(C#N)=CC1=C(N2CCCC2)CCCC1 was read as AID504770 -0.35.
COc1ccccc1Nc1nnc(SCc2ncc(-c3ccccc3)o2)s1 was read as AID504770 -0.5.
For O=C(Nc1ccccc1C(=O)NN=Cc1cc(Br)cc([N+](=O)[O-])c1O)c1cccs1 the results were Ba CapD inh -0.7.
CCc1cc(=S)n2c([nH]c3ccccc32)c1C#N was read as AID504770 0.
Screening CCN1/C(=C\C=C2\C(=O)N(C)C(=S)N2C)Sc2ccccc21 returned Ba CapD inh -0.065 and AID504770 1.6.
For CCc1nc2sc3c(O)cc(=O)[nH]c3c2cc1C the results were Ba CapD inh 37 and AID504770 -0.6.
For Cc1csc(=O)n1CC(=O)Oc1ccc(Oc2ccccc2)cc1 the results were AID504770 0.4.
COc1cccc(-c2nn(Cc3ccccc3)cc2CO)c1 was read as AID504770 -1.4.
Screening NC(=O)c1cccc(N2C(=O)c3ccccc3C2=O)c1 returned Ba CapD inh 0.36 and AID504770 1.4.

Already shown: an excerpt of the list.
For CCc1nc2ccccc2n1CCCOc1ccc(Cl)cc1 the results were Ba CapD inh 0.42 and AID504770 -0.45.
Cc1cccc(CCNC(=O)c2cc(=O)[nH]c3ccc(Br)cc23)c1 was read as Ba CapD inh -0.68 and AID504770 0.7.
For CCOC(=O)c1ccc(N=C2S/C(=C\c3cc4c(cc3OC)OCO4)C(=O)N2C)cc1 the results were Ba CapD inh 0.24 and AID504770 -0.5.
For CC(=O)N1C(=S)NC(=O)/C1=C\c1c(Cl)cccc1Cl the results were Ba CapD inh -0.085 and AID504770 0.3.
For CN(CC(=O)N1CCCCC1)S(=O)(=O)c1ccc2c(c1)CCCC(=O)N2 the results were Ba CapD inh 0.66 and AID504770 0.15.
`Cc1ccc(C(=O)CSC(=S)SC(C)(C)C)cc1` gave Ba CapD inh -0.29.
Screening O=C(O)CCCn1cc(NC(=O)c2cccs2)cn1 returned Ba CapD inh -0.63 and AID504770 -0.9.
N#CC(C#N)=CC1=C(N2CCCC2)CCCC1 was read as AID504770 -0.35.
COc1ccccc1Nc1nnc(SCc2ncc(-c3ccccc3)o2)s1 was read as AID504770 -0.5.
For O=C(Nc1ccccc1C(=O)NN=Cc1cc(Br)cc([N+](=O)[O-])c1O)c1cccs1 the results were Ba CapD inh -0.7.
CCc1cc(=S)n2c([nH]c3ccccc32)c1C#N was read as AID504770 0.
Screening CCN1/C(=C\C=C2\C(=O)N(C)C(=S)N2C)Sc2ccccc21 returned Ba CapD inh -0.065 and AID504770 1.6.
For CCc1nc2sc3c(O)cc(=O)[nH]c3c2cc1C the results were Ba CapD inh 37 and AID504770 -0.6.
For Cc1csc(=O)n1CC(=O)Oc1ccc(Oc2ccccc2)cc1 the results were AID504770 0.4.
COc1cccc(-c2nn(Cc3ccccc3)cc2CO)c1 was read as AID504770 -1.4.
Screening NC(=O)c1cccc(N2C(=O)c3ccccc3C2=O)c1 returned Ba CapD inh 0.36 and AID504770 1.4.

Continuation:
For Cc1ccccc1OCCCC(=O)NCc1ccco1 the results were AID504770 -0.05.
For COc1ccc(C(=O)Nc2ccc(-c3n[nH]c(=S)o3)cc2)cc1 the results were Ba CapD inh -0.92 and AID504770 -0.85.
`COc1ccc(C2C(N3C(=O)c4c(Cl)c(Cl)c(Cl)c(Cl)c4C3=O)C(=O)N2c2ccc(Br)c(C)c2)cc1Br` (stereo unspecified) gave Ba CapD inh 0.015.
Cc1ccc(-c2nc(N)oc2-c2ccc(C)cc2)cc1 was read as Ba CapD inh 80 and AID504770 -1.1.
For COc1ccc(C2CC(C(F)(F)F)n3nc(C(=O)Nc4c(C)n(C)n(-c5ccccc5)c4=O)c(Cl)c3N2)cc1 (stereo unspecified) the results were Ba CapD inh -0.68.
For COc1cc2c(cc1OC)C(C)N(C(=O)CCC(=O)O)CC2 (stereo unspecified) the results were Ba CapD inh -0.29 and AID504770 -1.1.
For O=S(=O)(c1ccccc1)N1CCC(Oc2ccc(-n3cnnn3)cc2)CC1 the results were Ba CapD inh -0.14 and AID504770 -0.35.
